TRPV1 potentiator – potentiators of human vanilloid receptor 1 (TRPV1); Q8NER1; hit rate 0.02% among 320,000; potentiation, % at 8.33 µM; TRPV1-expressing cells, Fluo-8 calcium influx, capsaicin EC20 potentiation; host cell line not named in the record; control for the full effect not named in the record; active means potentiation above 80%; inconclusive means 30% to 80%; inactive means below 30%; further: 0% is about no effect
Target sequence (Q8NER1 whole entry, looked up): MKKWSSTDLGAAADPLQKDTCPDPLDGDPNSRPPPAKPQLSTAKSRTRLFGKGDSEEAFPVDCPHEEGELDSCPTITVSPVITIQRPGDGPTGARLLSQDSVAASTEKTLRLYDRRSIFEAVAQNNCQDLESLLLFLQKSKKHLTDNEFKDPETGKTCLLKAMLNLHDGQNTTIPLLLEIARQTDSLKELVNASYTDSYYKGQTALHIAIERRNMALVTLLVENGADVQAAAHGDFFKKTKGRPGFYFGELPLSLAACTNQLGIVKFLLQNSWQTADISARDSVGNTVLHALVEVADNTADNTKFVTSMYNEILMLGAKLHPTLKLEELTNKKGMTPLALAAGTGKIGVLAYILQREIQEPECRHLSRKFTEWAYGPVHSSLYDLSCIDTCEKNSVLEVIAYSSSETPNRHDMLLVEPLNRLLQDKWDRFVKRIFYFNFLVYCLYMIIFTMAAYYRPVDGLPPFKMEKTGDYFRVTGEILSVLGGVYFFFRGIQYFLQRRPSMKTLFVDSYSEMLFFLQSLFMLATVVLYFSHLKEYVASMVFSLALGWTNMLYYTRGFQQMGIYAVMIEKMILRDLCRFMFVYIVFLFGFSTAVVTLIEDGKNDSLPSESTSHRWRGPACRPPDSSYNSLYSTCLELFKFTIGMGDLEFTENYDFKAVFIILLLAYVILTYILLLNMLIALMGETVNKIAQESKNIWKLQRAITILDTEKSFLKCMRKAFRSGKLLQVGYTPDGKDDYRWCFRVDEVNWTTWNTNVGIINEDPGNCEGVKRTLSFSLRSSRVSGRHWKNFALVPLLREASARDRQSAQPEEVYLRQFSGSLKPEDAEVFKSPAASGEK
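TRPV1-expressing cells were cultured overnight at 35.5C and loaded with Fluo-8 calcium dye for 40 to 90 min at room temperature. After a 10 s baseline, compound was added and calcium influx was read kinetically for 3 min (ex 480/em 520 nm).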
gsp antagonist – antagonizes gsp, the McCune-Albright syndrome mutation. Potency, µM (doses to about 76.9 µM), without a hit: at the highest dose activity change, negative = inhibition, usual class: inhibitors. hit rate 0.4% among 340,000. gsp-mutant cells, cAMP HTRF, 30 min; control for the full effect not named in the record. AID 624288; active = falling curve of any shape with a large fitted effect; inconclusive = falling curve, mostly with a smaller effect; inactive = flat or rising curve; cell line not stated here;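 further: intracellular cAMP measured with PDE inhibitor Ro 20-1724 present during compound exposure; potency means the concentration at half of the fitted maximal effect; on the % scale 0 is the no-effect control and ±100 the full control effect; nearly all actives have a fitted effect of over 65% in size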
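Cells, 2000/well, grown 16–24 h in DMEM 10% FBS with 0.5 mg/ml G418, then compounds plus […] (300 uM addition stock), 30 min at 37C. cAMP read by HTRF (cAMP-d2 and anti-cAMP antibody-K in lysis buffer) after 30 min RT.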
TRPML1 blocker – blocks the human TRPML1 channel; Q9GZU1; TRPML1-inducible cells, Ca2+ dye fluorescence, FDSS; stronger effect = lower value; inhibition of EC80 agonist-evoked calcium signal; activity change, negative = inhibition, % (no concentration beside the values); hit rate 0.02% among 390,000; in the data active means activity change below about -50%; inconclusive means about -30% to -50%; inactive means above about -30%;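 further: stimulus is agonist 54-4 at its EC80 concentration; on the % scale 0 is the no-effect control and ±100 the full control effect; compound concentration not given in the record; the text of the record puts the active cut at -80%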
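Calcium fluorescence in TRPML1-DL cells induced overnight with Tet: a 110 s read after compound pin addition, then a 110 s antagonist read after challenge with 54-4 at 4 uM final (EC80).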
gsp ag – agonists of gsp mutant (McCune-Albright syndrome) | gsp mutant cells, cAMP HTRF, 30 min; control for the full effect not named in the record | Potency, µM (doses to about 76.9 µM), without a hit: at the highest dose activation (cAMP increase), hits mostly activators | hit rate 0.13% among 340,000 | AID 624287; active = well fitted activation curve with a large enough effect; inconclusive = small, poorly fitted or top-dose-only effect, or another doubt; inactive = no such curve, though single readings can be large or run the other way; cell line not stated here;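 further: phosphodiesterase inhibitor Ro 20-1724 added with compounds to block cAMP breakdown; potency means the concentration at half of the fitted maximal effect; nearly all actives have a fitted effect of over 60% in size; about a fifth of the inactives were tested at one dose only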
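Cells stably selected in G418 were plated at 2000/well, grown 16-24 hr, then given compounds in DMSO with the PDE inhibitor […] (300 uM solution added) for 30 min at 37C; cAMP was read by HTRF.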
Sfp PPTase inh – inhibitors of Bacillus subtilis Sfp phosphopantetheinyl transferase; Potency, µM, for inactives: max response, negative = inhibition, usual class: inhibitors; Biochemical Sfp PPTase activity, qHTS; Q9F4F7; hit rate 3.5% among 310,000; active means well fitted inhibition curve with a large enough effect; inconclusive means small, poorly fitted or top-dose-only effect, or another doubt; inactive means no such curve, though single readings can be large or run the other way;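 further: the enzyme is Sfp with the accession as filed and its product quenches rhodamine fluorescence; potency means the concentration at half of the fitted maximal effect; 0% = enzyme reaction without inhibitor and -100% = no enzyme wells; top concentration of the series not given in the record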
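With Hepes-Na pH 7.6 buffer containing 10 mM MgCl2, Sfp (15 nM) modified BHQ-2-YbbR (12.5 uM) using rhodamine-CoA (5 uM). Two reads 30 minutes apart at 525/598 nm yielded each well's rate.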
ClpP mod – qHTS Assay for Activators of ClpP; ATP-dependent Clp protease proteolytic subunit (Bacillus subtilis (strain 168)), P80244; purified B. subtilis ClpP, FRET peptide cleavage, 20 min; Potency, µM (highest dose often 57.5 µM), for inactives: at the highest dose activity change, negative = active; hit rate 1.9% among 340,000; active = well fitted falling curve with a large enough effect; inconclusive = small, poorly fitted or top-dose-only effect; inactive = no such curve, though single readings can be large or run the other way; further: potency means the concentration at half of the fitted maximal effect; the source files actives as falling curves though it sought activators and does not explain the sign; nearly all actives have a fitted effect of over 65% in size; many hits overshoot -100%
Target sequence (P80244 whole entry, looked up): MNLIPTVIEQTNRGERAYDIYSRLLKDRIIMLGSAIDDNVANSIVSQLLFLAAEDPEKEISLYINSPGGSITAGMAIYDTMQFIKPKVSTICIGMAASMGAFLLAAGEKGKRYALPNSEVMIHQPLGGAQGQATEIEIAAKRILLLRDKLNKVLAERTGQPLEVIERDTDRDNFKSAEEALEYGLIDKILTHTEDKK
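Purified B. subtilis ClpP, 10 microg/mL final in Tris/HCl pH8 with KCl, BSA, glycerol and Tween-20, cleaved an Abz/nitrotyrosine-quenched decapeptide. Fluorescence (ex 320, em 430) was read at 0 and 20 min at room temperature. Delta was normalized to 5.8 microM ADEP and DMSO/no-enzyme controls.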
Menin-MLL FL inh – menin-MLL binding inhibition, fluorescein peptide; 290,000 tested, under 10 active; FP activity change, % at 61.4 µM; Fluorescence polarization, fluorescein-MLL peptide displacement from menin; inconclusive = falling polarisation curve, or a change in total fluorescence; inactive = total fluorescence flat and polarisation flat or rising; no compound was filed as active; the % refers to the polarisation; negative = inhibition;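 further: % of control where 0% means no effect; inhibitors lower the polarisation; unlabelled MLL peptide was the positive control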
Starred values were filed as active, the others as inactive; u = inconclusive; x = no result given; & = joins results of further samples; [ ] = dose if it differs, or a comment.

Structure	TRPV1 potentiator	gsp antagonist	TRPML1 blocker	gsp ag	Sfp PPTase inh	ClpP mod	Menin-MLL FL inh
CCOC(=O)c1c(-c2ccc(C)o2)csc1NC(=O)CN1CCC(C(N)=O)CC1	6	x	41	-14%[15.4 µM]	32µM*	x	-5.2
COc1ccc(-c2nnsc2N2C(=O)c3ccccc3C2=O)cc1	8	-10%	2	9%[15.4 µM]	14%	x	2.5
Cc1ccccc1N(C(=O)c1snc(C(N)=O)c1N)C(C(=O)NC1CCCC1)c1ccco1 (stereo not given)	-7	u	38	u	11%	x	-2.9
O=C(CCN1CCCC1Cc1ccccc1)c1ccc2c(c1)OCCO2 (stereo not given)	0	14%	-8	17%	50µM*	1.0%	2.9
CC1=C(C(=O)Nc2ccccc2)C(c2ccc(C)cc2)N=C(Nc2nc3ccccc3o2)N1 (stereo not given)	8	-1%	5	-50%[inhibitor]	-19%	5µM*	3.0
COc1ccc(OC)c(NC(=O)c2cccc(NC(=O)c3ccco3)c2)c1	x	x	-10	-99%[inhibitor]	x	1.1%	x
CCN(CC)c1ccc(-c2nc3cnccn3c2NC2CCCC2)cc1	-4	u	63	16%	-24%	-29%	u
CCCCN(C)CCNC(=O)c1cc(-c2cccnc2)nc2ccc(S(=O)(=O)N3CCC(C)CC3)cc12	5	9%	4&1	39%	3%	-4.4%&1.2%	x
NS(=O)(=O)c1ccc(CCNC(=O)COC(=O)Cc2ccc(Cl)cc2)cc1	x	x	14	1%	x	0.8%	x
O=C(Oc1cccc(C(=S)N2CCOCC2)c1)c1cc([N+](=O)[O-])cc([N+](=O)[O-])c1	0	-1%	-2	-8%[15.4 µM]	0%	x	-0.9
O=C(CNS(=O)(=O)c1ccc(Br)s1)N1CCN(c2ncccn2)CC1	1	3%	2	0%	12%	-1.7%	1.7
Cc1cc(C)c(C#N)c(N2CCCC(C(N)=O)C2)n1 (stereo not given)	-1	-10%	-4	9%	1%	3.5µM*	-1.0
COc1ccc(N(C(=O)CNC(=O)c2ccco2)C(C(=O)NC2CCCCC2)c2ccncc2)cc1 (stereo not given)	-4	9%	3	6%	2%	x	-5.2
Cn1c(=NC(=O)c2ccccc2[N+](=O)[O-])sc2cccc(F)c21	2	-3%	27	-21%	11%	0.2%	-5.6
O=C(c1cnn2c(C(F)F)cc(-c3ccccc3)nc12)N1CCN2CCCC2C1 (stereo not given)	7	-18%	10	u	20%	-9.2%	3.3
C=CCc1cccc2cc(C(=O)NC3CCCCC3)c(=O)oc12	-22	-2%	-14	u	6%	x	-1.7
CC(=O)N1CCOc2ccc(S(=O)(=O)NCC3CCC(C(=O)Nc4ccc(C)cn4)CC3)cc21 (stereo not given)	-6	-29%	-15	u	8%	-3.4%	x
CCOC(=O)c1c(NCc2ccc3c(c2)OCO3)c2ccccc2[nH]c1=O	14	-9%	7	-16%	5%	-0.7%	0.8
CCOc1ccc(-c2c(C(=O)N/N=C/c3ccc(OC)cc3)nnn2-c2nonc2N)cc1	13	-4%	-18	32%[15.4 µM]	8%	-1.5%	1.9
Cc1cc(C)c(NC(=O)CN2C(=O)NC3(CCCCC3)C2=O)c(Cl)c1	1	-3%	4	-22%	10%	-1.2%	4.3
Cc1ccc(S(=O)(=O)NCCc2ccncc2)cc1C	-33	12%	8	16%[15.4 µM]	11%	x	-4.4
CSCCC(NC(=O)C1CCCCC1)c1nc2ccccc2[nH]1 (stereo not given)	9	6%	-17	15%[15.4 µM]	-1%	x	5.4
CCCCC(=O)Nc1cccc(NC(=O)C(C)C)c1	0	11%	4	3%	14%	0.9%	1.5
O=C(c1ccc([N+](=O)[O-])cc1)N(Cc1cccs1)C1CCS(=O)(=O)C1 (stereo not given)	9	2%	-19	-9%	9%	-2.8%	-5.9
COC(=O)c1ccccc1NC(=O)c1ccc2c(c1)OCCCO2	-12	-32%	45	3%	-11%	-1.3%	x
CCC(=Cc1ccc(CC)cn1)CC	-4	18%	-5	16%[15.4 µM]	-7%	x	3.6
CCOC(=O)c1c(C)nc2sc3c(c2c1-c1ccc(OC)cc1)NC(c1ccccc1)NC3=O (stereo not given)	x	-1%	57	-16%	-18%	103%	u
CC(C)c1ccc(NC(=O)/C(C#N)=C/c2ccncc2)cc1	u	7%	7	25%	4%	0.8%	x
Cc1ccc(CNC(=O)CCNS(=O)(=O)c2cccs2)cc1	7	11%	-6	12%	8%	0.7%	6.8
CCc1ccc(NC(=O)c2cnn(-c3ccccc3)c2C)cc1	-30	-10%	-11	-19%[15.4 µM]	-2%	-0.1%	4.4
COc1cccc(C(=O)/C=C/Nc2ccc(S(=O)(=O)Nc3cnc4ccccc4n3)cc2)c1	15	u	8	-11%	-28%	-2.3%	u
Cc1cccn2c(=O)nc(SCC(=O)N3CCCCCC3)nc12	-1	12%	29	5%[15.4 µM]	x	x	x
O=C(CCC1CCN(Cc2ccc(C#CCCO)cc2)CC1)NC1CC1	6	1%	2	-32%	4%	-2.9%	0.0
Cc1c(NS(=O)(=O)c2cc(C(=O)N(C)Cc3ccccc3)ccc2Cl)c(=O)n(-c2ccccc2)n1C	x	-11%	-21	2%[15.4 µM]	x	-2.2%	x
CCCc1ccc(OCC(O)CN2CCc3ccccc3C2)cc1 (stereo not given)	-17	-8%	x	-13%	13%	-0.1%	-1.9
Cc1oc(-c2ccccc2F)nc1CS(=O)(=O)CC(=O)N1CCCCCC1	-10	0%	-4	u	5%	-15%	1.6
COc1ccccc1CNC(=O)C1CCC(CNc2c(N3CCCCC3)c(=O)c2=O)CC1 (stereo not given)	21	5%	-13	11%	4%	-0.6%	2.0
CCc1cc(=O)oc2c3c(cc(OCC(=O)NCCC(=O)O)c12)OC(C)(C)CC3	21	0%	-14	u	12%	x	-2.4
Cc1ccc2c(CC(=O)NNC(=O)c3ccncc3)coc2c1	-5	5%	21	-3%[15.4 µM]	x	x	x
CCc1cccc(Nc2c3c(nc4ncnn24)CCC3)c1	-8	-4%	-3	-18%	4%	0.1%	-0.7
Cc1c(NC(=O)c2csc3c2CCCC3)c(=O)n(-c2ccccc2)n1C	2	-1%	0	20%[15.4 µM]	16%	x	-3.4
O=C(CNS(=O)(=O)c1ccccc1)OCC(=O)c1ccccc1Cl	3	-14%	6	6%	14%	-0.9%	4.3
CCn1c(SCC(=O)Nc2ccc3c(c2)OCCO3)nnc1-c1ccccn1	0	-4%	7	4%	10%	1.5%	-3.1
Cn1c(/C=C/c2ccc([N+](=O)[O-])o2)nc2ccccc2c1=O	14	10%	-17	34%[15.4 µM]	-6%	-3.0%	u
COc1cc(/C=N/NC(=S)NC(C)C)ccc1OCC(=O)Nc1c(C)cc(C)cc1C	1	9%	6	0%	-19%	u	1.3
Cc1ccccc1NC(=O)c1cccc(NC(=O)c2ccco2)c1	u	-22%	-12	10%[15.4 µM]	20%	-1.0%	-0.7
Cc1onc(-c2ccccc2)c1C(=O)Nc1ccc(Cl)cn1	-5	-8%	-19	8%[15.4 µM]	3%	u	-1.8
C=CCn1c(SCC(=O)NCc2ccc3c(c2)OCO3)nnc1C1CCCCC1	-10	2%	14	12%	1%	-1.2%	2.1
CC1=NNC(=O)C1CCC(=O)N/N=C/C=C/c1ccccc1 (stereo not given)	9	1%	4	18%	3%	x	6.1
Cc1ccc2nc(-c3cccnc3)c(NC3CCCC3)n2c1	-8	-20%	73	-40%[inhibitor]	-11%	-3.2%	-2.6

More records follow:
Structure	TRPV1 potentiator	gsp antagonist	TRPML1 blocker	gsp ag	Sfp PPTase inh	ClpP mod	Menin-MLL FL inh
Cc1cc(C)cc(NC(=O)CN2CCN(C(=O)C3CCCO3)CC2)c1 (stereo not given)	1	3%	-1	14%	18%	-0.4%	-0.2
CSc1nnc(-c2ccccc2)c(=O)[nH]1	-2	-8%	-22	10%	13%	-0.8%	0.7
Oc1cccc(/C=N/Nc2cc(N3CCOCC3)nc(N3CCOCC3)n2)c1	-29	-6%	-11	-5%	-17%	-3.2%	6.6
COc1cccc(NC(=O)COc2ccc(Br)c(C)c2)c1	-10	3%	21	-2%	0%	-0.2%	0.3
CC(NCCc1ccc(O)cc1)C(O)c1ccc(O)cc1 (stereo not given)	2	-6%	29	x	6%&6%	-1.3%	-4.4&-1.8
CCOC(=O)N1CCN(c2nc3ccc(C)cc3n3cnnc23)CC1	12	6%	19	-8%	-8%	-8.8%	-0.8
O=C(NCC(=O)N(c1ccccc1F)C(C(=O)NC1CCCC1)c1ccncc1)c1ccco1 (stereo not given)	13	-1%	-6	-11%[15.4 µM]	18%	x	1.0
COc1ccc(NC(=O)CSc2nc(N)cc(N)n2)cc1S(=O)(=O)N1CCCCC1	22	9%	11	15%	x	1.6%	x
COc1cc(C(=O)Oc2cc(C)cc(C)c2)cc(OC)c1OC	-7	0%	-5	-3%	34%[activator]	-3.5%	2.1
COc1ccc(N2CCN(CCCNC(=O)CN3C(=O)COc4ccccc43)CC2)cc1	-1	1%	13	u	14%	-2.7%	-0.2

Screening data: PubChem, National Center for Advancing Translational Sciences (NCATS)
